RGS16-Gao HTS = modulators of RGS16 binding to Galphao, primary screen, biochemical, human proteins, multiplexed bead flow cytometry; Regulator of G-protein signaling 16 (Homo sapiens) + Guanine nucleotide-binding protein …; bead-based flow cytometry RGS16-Galphao binding, fluorescence; actives lie on both sides; binding response (% of control), % at 10 µM; hit rate 0.38% among 220,000;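 active = below 25% or above 175%, edge rows of some plates excepted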;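 also: Galphao activated by GDP with aluminum fluoride before binding; 100% = wells without compound and 0% = beads without RGS; some results beyond the cut were filed as inactive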
Target sequence (O15492 whole entry, looked up): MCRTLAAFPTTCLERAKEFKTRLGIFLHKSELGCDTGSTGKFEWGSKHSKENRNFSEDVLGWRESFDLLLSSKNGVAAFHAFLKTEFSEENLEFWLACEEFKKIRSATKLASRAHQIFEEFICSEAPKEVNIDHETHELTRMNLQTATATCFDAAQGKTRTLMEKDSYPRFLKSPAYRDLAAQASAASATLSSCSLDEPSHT
Target sequence (P09471 whole entry, looked up): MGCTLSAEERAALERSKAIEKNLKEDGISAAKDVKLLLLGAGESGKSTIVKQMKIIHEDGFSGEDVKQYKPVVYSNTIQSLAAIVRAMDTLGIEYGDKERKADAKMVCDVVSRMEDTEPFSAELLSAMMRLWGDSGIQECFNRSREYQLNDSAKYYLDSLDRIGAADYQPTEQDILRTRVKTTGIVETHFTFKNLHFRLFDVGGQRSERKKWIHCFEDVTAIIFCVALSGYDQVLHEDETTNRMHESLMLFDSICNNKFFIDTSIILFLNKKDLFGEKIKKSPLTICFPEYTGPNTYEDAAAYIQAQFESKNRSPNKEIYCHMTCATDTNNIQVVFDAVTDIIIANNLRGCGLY
HSV augment = enhancers of HSV replication in host cells, fold increase, host cell viability; HSV replication augmentation in cells; hit rate 0.005% among 220,000; maximum fold increase;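 active = peak rise of 1.5-fold or more in the series; tested in PC3 cells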;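 also: first round at 10 µM; read as green reporter fluorescence; hits show the peak of a series up to 25 µM; 1 = signal of infected wells without compound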
HSV augment primary fold = further read-out of HSV augment, marked with its call; fold increase; compound at 10 µM; measured here: primary screen fold increase 10 uM; tested in PC3 cells;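 GFP signal in the first replicate; 1 = infected wells without compound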
An asterisk follows results filed as active; i = inactive; . = not tested or not shown. An excerpt, so the mix of outcomes need not match the whole.

smiles	RGS16-Gao HTS	HSV augment	HSV augment primary fold
CN1CCc2nc(SCC(=O)OC(C)(C)C)c(C#N)cc2C1	102	.	.
CN1C(=O)CN=C(c2ccccc2)c2cc(Cl)ccc21	87	.	.
COC(=O)C1=C(c2ccc(S(C)(=O)=O)cc2)C[C@@H]2CC[C@H]1N2C(=O)NCc1ccccc1	.	i	1.1
c1cncc(C2CCCN2)c1 (configuration not stated)	.	i	0.8
COc1cc2c(c(OC)c1OC)-c1ccc(C(=O)O)cc1[C@@H](NC(C)=O)CC2	.	i	0.83
C/C=C1\CN2[C@H]3C[C@@]45c6ccccc6N(C)[C@H]4[C@@H]2CC1C3[C@H]5O (some centres not stated)	.	i	0.57
CCOc1ccc(NC(=O)c2c(O)[nH]c(=O)[nH]c2=O)cc1	.	i	0.51
NC(=O)c1cc(N2CC2)c([N+](=O)[O-])cc1[N+](=O)[O-]	.	i	0.82
N[C@@H](Cn1oc(=O)[nH]c1=O)C(=O)O	.	i	0.84
COC(=O)C1=C(c2cccc(OC)c2OC)C[C@@H]2CC[C@H]1N2C(=O)NC1CC1	.	i	1.1
COC(=O)C1=C(c2ccccc2)C[C@@H]2CC[C@H]1N2C(=O)N1CCC(O)CC1	.	i	0.81
COC(=O)C1=C(c2ccc(S(C)(=O)=O)cc2)C[C@@H]2CC[C@H]1N2C(=O)NCCCOC(C)C	.	i	0.91
CCNc1nc(NC(C)(C)C)nc(SC)n1	.	i	1
CNCC(O)c1cc(F)c(OCc2ccccc2)c(OCc2ccccc2)c1F (configuration not stated)	.	i	0.68
O=C(O)CC[N+](=O)[O-]	.	i	0.84
COC(=O)C1=C(c2ccccc2)C[C@@H]2CC[C@H]1N2C(=O)N1CCC(C)CC1	.	i	0.69

Reformatted: results already given.
CN1C(=O)CN=C(c2ccccc2)c2cc(Cl)ccc21
  RGS16-Gao HTS = 87
  HSV augment = .
  HSV augment primary fold = .
COC(=O)C1=C(c2ccc(S(C)(=O)=O)cc2)C[C@@H]2CC[C@H]1N2C(=O)NCc1ccccc1
  RGS16-Gao HTS = .
  HSV augment = i
  HSV augment primary fold = 1.1

Following part
smiles	RGS16-Gao HTS	HSV augment	HSV augment primary fold
O=C(O)C(Cl)Cl	.	i	0.65
C[N+]1(C)CCC(OC(=O)C(c2ccccc2)c2ccccc2)CC1	.	i	0.65
COC(=O)C1=C(c2cc3ccccc3o2)C[C@@H]2CC[C@H]1N2C(=O)NCCCOC(C)C	.	i	0.84
Nc1ncnc2c1ccn2[C@@H]1O[C@H](CO)[C@@H](O)[C@H]1O	.	i	0.45
CCOP(=O)(OCC)C(O)c1ccc(OC)cc1 (configuration not stated)	.	i	0.94
CCCNC(=O)N1[C@H]2CC[C@@H]1C(C(=O)OC)=C(c1cccc(OC)c1OC)C2	.	i	0.85
CCC(=Nc1ccc2c(c1)CCC2)c1c(O)n(C)c(=O)n(C)c1=O	.	i	0.96
Oc1c(Cl)c(Cl)c(Cl)c(Cl)c1Cl	.	i	0.63

The list goes on; it opens with the 7 that closed the last part.
smiles	RGS16-Gao HTS	HSV augment	HSV augment primary fold
C[N+]1(C)CCC(OC(=O)C(c2ccccc2)c2ccccc2)CC1	.	i	0.65
COC(=O)C1=C(c2cc3ccccc3o2)C[C@@H]2CC[C@H]1N2C(=O)NCCCOC(C)C	.	i	0.84
Nc1ncnc2c1ccn2[C@@H]1O[C@H](CO)[C@@H](O)[C@H]1O	.	i	0.45
CCOP(=O)(OCC)C(O)c1ccc(OC)cc1 (configuration not stated)	.	i	0.94
CCCNC(=O)N1[C@H]2CC[C@@H]1C(C(=O)OC)=C(c1cccc(OC)c1OC)C2	.	i	0.85
CCC(=Nc1ccc2c(c1)CCC2)c1c(O)n(C)c(=O)n(C)c1=O	.	i	0.96
Oc1c(Cl)c(Cl)c(Cl)c(Cl)c1Cl	.	i	0.63
COc1ccc2[nH]cc(C3=CCNCC3)c2c1	.	i	1
CC(=O)O[C@@H]1/C=C/[C@](C)(O)C[C@@H](C)C/C=C/[C@H]2[C@H](O)[C@@](C)(O)[C@@H](C)[C@H]3[C@H](Cc4ccccc4)NC(=O)[C@@]312	.	i	0.99
COC(=O)C1=C(c2cc3ccccc3o2)C[C@@H]2CC[C@H]1N2C(=O)NCc1ccco1	.	i	0.7
COC(=O)C1=C(c2cc3ccccc3o2)C[C@@H]2CC[C@H]1N2C(=O)NCc1ccccc1	.	i	0.89
CC1=C(C/C(C)=C/c2ccccc2)/C(=C/CO)[C@H](O)[C@](C)(O)C12CC2	.	i	0.95
N[C@@H](CCl)C(=O)O	.	i	0.87
CCCNC(=O)N1[C@H]2CC[C@@H]1C(C(=O)OC)=C(c1cc3ccccc3s1)C2	.	i	0.61
Cn1cnc(CCN)c1	.	i	0.94
COc1ccc2c(c1)[C@]13CCCCC1C(C2)N(C)CC3 (some centres not stated)	.	i	0.76
O[C@@H]1CCCN2CCc3c([nH]c4ccccc34)[C@H]12	.	i	1
CNCC(=O)c1ccccc1	.	i	1.1
C[C@]12CC[C@H](O)CC1=CC[C@@H]1[C@@H]2CC[C@]2(C)C(=O)CC[C@@H]12	.	i	1
c1ccc2c(N3CCNCC3)cccc2c1	.	i	0.72
COC(=O)C1=C(c2ccccc2)C[C@@H]2CC[C@H]1N2C(=O)N1CCOCC1	.	i	0.94

Screening data: PubChem, several laboratories
